Ecoli rRNA inh: reduced GFP signal of wild-type E. coli, primary screen, bacterial rRNA inhibitor project, GFP/RFP fluorescence, OD600, single point | E. coli WT GFP vs humanized-ribosome RFP mutants, 24 h; stronger effect = lower value; DMSO median 0, no signal -100 | GFP signal change (wild-type ribosome), % (concentration not given with the values) | 350,000 compounds, 1.6% hits | AID 720706, 2013;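 active = significant combined selectivity score with lowered wild-type GFP, culture density cut under 30%, mutant RFP and density less affected; inactive = any of these conditions unmet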; also: one replicate is shown; some compounds called inactive have numbers as strong as hits
FGF22 binding: binders of human FGF22 protein, primary screen, FGF22 synaptogenesis inhibitor project, biophysical, thermal shift, single point | Fibroblast growth factor 22 (Homo sapiens), Q9HCT0 | calls only at 9.99 µM | recombinant FGF22 thermal shift, SYPRO orange fluorescence; percent of sucrose octasulfate shift, DMSO zero | 340,000 compounds, 1.5% hits | AID 651658, 2012;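 active = melting point raised past a set limit in the mean and every replicate; three in four hits are not shown here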
Target sequence (Q9HCT0 whole entry, looked up): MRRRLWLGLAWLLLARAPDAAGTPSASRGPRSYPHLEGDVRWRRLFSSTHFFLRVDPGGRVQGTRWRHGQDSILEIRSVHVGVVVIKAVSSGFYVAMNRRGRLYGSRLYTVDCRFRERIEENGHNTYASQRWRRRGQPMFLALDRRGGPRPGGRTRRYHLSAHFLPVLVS
MLL AF4-AF9 inh: inhibitors of AF4 peptide binding to AF9, primary screen, biochemical, AlphaScreen, biotin-AF4 peptide, FLAG-AF9, single point; AID 651704, 2012; Protein AF-9 (Homo sapiens), P42568; 350,000 compounds, 0.47% hits; inhibition, % at 10 µM;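 active = every replicate reaching a set inhibition limit, whatever the replicate mean, cut at about 25% in these data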;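 also: 0% = plate neutral control median and 100% = total signal loss; the record names both 10 and 1 µM as test concentration; the first replicate is given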
Target sequence (P42568 whole entry, looked up): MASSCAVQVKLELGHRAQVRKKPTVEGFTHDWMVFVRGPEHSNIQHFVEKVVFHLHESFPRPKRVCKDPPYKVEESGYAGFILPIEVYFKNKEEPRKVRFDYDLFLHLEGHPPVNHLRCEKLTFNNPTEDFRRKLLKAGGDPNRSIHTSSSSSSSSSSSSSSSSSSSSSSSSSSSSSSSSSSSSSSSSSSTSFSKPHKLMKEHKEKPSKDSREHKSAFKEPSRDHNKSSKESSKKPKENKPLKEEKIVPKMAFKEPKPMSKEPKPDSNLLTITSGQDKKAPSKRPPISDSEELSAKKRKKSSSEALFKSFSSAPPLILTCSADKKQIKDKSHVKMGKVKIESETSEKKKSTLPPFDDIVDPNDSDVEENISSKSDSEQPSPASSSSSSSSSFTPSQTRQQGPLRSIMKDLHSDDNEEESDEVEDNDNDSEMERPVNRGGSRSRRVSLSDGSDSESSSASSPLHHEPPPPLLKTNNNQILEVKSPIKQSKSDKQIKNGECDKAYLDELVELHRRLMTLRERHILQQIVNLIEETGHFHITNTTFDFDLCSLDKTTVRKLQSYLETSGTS
Ecoli rRNA inh OD600: recorded beside Ecoli rRNA inh, whose call it bears; OD600 change, %; measured here: OD600 growth;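 optical density of the mix in the first replicate; 0 = DMSO median and -100 = no signal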
Ecoli rRNA inh RFP: also measured in Ecoli rRNA inh; calls as there; RFP signal change, %; measured here: RFP humanized mutant strains;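 first replicate; 0 = DMSO median and -100 = no signal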
* hit, by the source's call; i = inactive; & = joins results of further samples. These rows are one share of the data; count on the stated rates, not on these rows.

The first 2 entries as a preview:
SMILES	Ecoli rRNA inh	Ecoli rRNA inh OD600	Ecoli rRNA inh RFP	FGF22 binding	MLL AF4-AF9 inh
OC[C@H]1[C@H](c2ccc(-c3ccc(F)cc3)cc2)[C@@H]2CN(Cc3cccnc3)CCCCN12	-16	17	2.4	i	3.0
O=C(C[C@@H]1C=C[C@H](NC(=O)c2ccccc2)[C@@H](CO)O1)Nc1ccc(-c2ccccc2)cc1	-5	-2	0.3	i	-0.2

All compounds of this part (from the top)
SMILES	Ecoli rRNA inh	Ecoli rRNA inh OD600	Ecoli rRNA inh RFP	FGF22 binding	MLL AF4-AF9 inh
OC[C@H]1[C@H](c2ccc(-c3ccc(F)cc3)cc2)[C@@H]2CN(Cc3cccnc3)CCCCN12	-16	17	2.4	i	3.0
O=C(C[C@@H]1C=C[C@H](NC(=O)c2ccccc2)[C@@H](CO)O1)Nc1ccc(-c2ccccc2)cc1	-5	-2	0.3	i	-0.2
C[C@H]1CN([C@@H](C)CO)C(=O)CCCn2nncc2CO[C@@H]1CN(C)C(=O)Nc1cccc(Oc2ccccn2)c1	1	1	0.0	i	-0.3
CCCCCCN1C[C@@H](O)[C@H](n2cc(COC(=O)c3ccccc3)nn2)C[C@@H]1c1ccccc1	5	5	1.2	i	0.5
COc1ccc2c3c(n(C)c2c1)[C@H](CO)N(Cc1ccccc1)CC31CCN(C(=O)Nc2cccc(F)c2)CC1	-1	-17	1.4	i	-0.1
COC(=O)Cn1cnc2c(Cl)nc(F)nc21	21	15	0.8	i	-3.9
C[C@H]1CN([C@@H](C)CO)C(=O)c2cc(NC(=O)Nc3ccccc3)ccc2O[C@H]1CN(C)S(C)(=O)=O	8	12	-0.3	i	-1.7
C[C@@H]1CN([C@H](C)CO)C(=O)CCCn2cc(nn2)CO[C@@H]1CN(C)S(C)(=O)=O	3	-1	-1.1	i	1.2
CNC[C@H]1Oc2ncc(C#CC3(O)CCCC3)cc2C(=O)N([C@H](C)CO)C[C@H]1C	8	17	-0.8	i	0.5
O=S(=O)(N[C@H]1CC[C@H](CCn2cc(C3CC3)nn2)O[C@@H]1CO)c1ccc(F)cc1	0	6	-3.5	i	-2.5
CCCC(=O)Nc1ccc2c(c1)C(=O)N(C)C[C@H](OC)[C@H](C)CN(C(=O)CN(C)C)[C@@H](C)CO2	2	-3	-2.1	i	0.7
C[C@@H]1CN([C@@H](C)CO)C(=O)CCCn2nncc2CO[C@H]1CN(C)Cc1ccncc1	2	1	0.4	i	0.3&-0.4&0.2
Cc1ccc(CNc2nc3cc(-c4ccccc4C)sc3c(=O)n2C)c(C)c1	-7	-3	-2.6	i	1.9
C[C@@H]1CN([C@H](C)CO)C(=O)c2cc(NS(=O)(=O)c3ccc(F)cc3)ccc2O[C@H]1CN(C)CC1CCCCC1	-3	2	-0.5	i	-1.9
CN1C(=O)c2cc(NC(=O)Cc3cccs3)ccc2OC[C@H]2O[C@@H](CC(=O)NCCCN3CCOCC3)CC[C@H]21	-3	-5	0.9	i	-3.8
Cc1ccccc1S(=O)(=O)NCC[C@@H]1CC[C@H](NC(=O)C2CCCC2)[C@@H](CO)O1	2	-2	2.0	i	-0.3
O=C1/C(=C/c2ccc(S(=O)(=O)O)cc2S(=O)(=O)O)CCc2ccccc21	3	16	5.0	i	-3.7
Cc1ccc(S(=O)(=O)Nc2ccc3c(c2)C(=O)N([C@H](C)CO)C[C@@H](C)[C@@H](CN(C)S(=O)(=O)c2ccccc2)O3)cc1	-2	-10	2.4	i	4.2
O=C(Nc1ccc(Cl)cc1F)C1CCCN(C2=NS(=O)(=O)c3ccccc32)C1 (stereo not given)	0	-1	2.1	i	-0.8
CC(=O)NC12CC3CC(C1)CC(C(=O)Nc1cccc(S(=O)(=O)N4CCCCCC4)c1)(C3)C2	-11	-17	0.1	i	-4.4
Cc1ccc(S(=O)(=O)N[C@@H]2C=C[C@H](CC(=O)O)O[C@H]2CO)cc1	4	4	-0.6	i	-0.9
C[C@@H]1CN([C@@H](C)CO)C(=O)c2cc(NC(=O)Nc3ccccc3)ccc2O[C@H]1CN(C)C(=O)Nc1ccc(C(F)(F)F)cc1	-5	-7	-2.2	i	-2.6
CNC[C@H]1Oc2c(NC(=O)c3cc(C)nn3C)cccc2C(=O)N([C@H](C)CO)C[C@@H]1C	2	4	-1.4	i	-1.7
COc1ccc(S(=O)(=O)Nc2ccc3c(c2)C(=O)N([C@@H](C)CO)C[C@H](C)[C@H](CN(C)C(=O)Nc2cccc4ccccc24)OCCCC[C@@H](C)O3)cc1	2	0	2.2	i	-1.1
O=S1(=O)C=C[C@@H](CO)N1Cc1ccc(Br)cc1	0	11	1.4	i	-2.6
COc1ccc(S(=O)(=O)Nc2ccc3c(c2)CC(=O)N([C@@H](C)CO)C[C@H](C)[C@@H](CN(C)S(=O)(=O)c2cn(C)cn2)O3)cc1	1	4	-1.5	i	-1.5
COc1ccccc1-c1noc2c1C(=O)N(Cc1cn(Cc3ccccc3)nn1)CC2	-2	7	-1.5	i	2.9
CC(C)NC(=O)N1[C@H](CN(C)C(=O)c2ccccc2)[C@@H](c2ccccc2)[C@@H]1CO	-2	10	-1.9	i	-0.6
O=c1ccsc2ccccc12	7	6	-0.5	i	-2.8
O=C(N[C@@H]1CC[C@@H](CCNS(=O)(=O)c2cccc(Cl)c2)O[C@@H]1CO)c1ccc(F)cc1	-5	-1	-1.1	i	-2.0
C[C@@H]1CCCCO[C@H](CN(C)C(=O)C2CCCCC2)[C@H](C)CN([C@@H](C)CO)C(=O)c2cc(NC(=O)NC3CCCCC3)ccc2O1	-1	-9	-0.5	i	-7.4
CC(=O)N[C@@H]1CC[C@@H](CC(=O)NCc2ccc(Cl)cc2)O[C@@H]1CO	3	9	-2.6	i	-11
CC(=O)N1[C@@H](CO)[C@@H](c2ccc(-c3ccc(C#N)cc3)cc2)C12CN(C(=O)C1CC1)C2	-2	-6	-1.5	i	0.3
Cc1noc(C)c1NC(=O)Nc1ccc2c(c1)C(=O)N([C@H](C)CO)C[C@H](C)[C@@H](CN(C)Cc1ccc(-c3ccccc3)cc1)O2	-2	-6	2.4	i	4.3
O=C(C[C@H]1C=C[C@H](NC(=O)C2CC2)[C@@H](CO)O1)NCCCN1CCOCC1	2	3	-1.0	i	-18
C[C@H](CO)N1C[C@H](C)[C@@H](CN(C)Cc2ccccc2)Oc2ccc(NS(=O)(=O)c3ccc(F)cc3)cc2C1=O	3	8	-0.3	i	-2.8

Arranged by value in Ecoli rRNA inh OD600 (low to high): some entries from above
Structure,Ecoli rRNA inh,Ecoli rRNA inh OD600,Ecoli rRNA inh RFP,MLL AF4-AF9 inh
O=C(N[C@@H]1CC[C@@H](CCNS(=O)(=O)c2cccc(Cl)c2)O[C@@H]1CO)c1ccc(F)cc1,-5,-1,-1.1,-2.0
O=C(C[C@H]1C=C[C@H](NC(=O)C2CC2)[C@@H](CO)O1)NCCCN1CCOCC1,2,3,-1.0,-18
COc1ccc(S(=O)(=O)Nc2ccc3c(c2)CC(=O)N([C@@H](C)CO)C[C@H](C)[C@@H](CN(C)S(=O)(=O)c2cn(C)cn2)O3)cc1,1,4,-1.5,-1.5
O=c1ccsc2ccccc12,7,6,-0.5,-2.8
O=S1(=O)C=C[C@@H](CO)N1Cc1ccc(Br)cc1,0,11,1.4,-2.6

Some values from the entries so far.
`CC(=O)N1[C@@H](CO)[C@@H](c2ccc(-c3ccc(C#N)cc3)cc2)C12CN(C(=O)C1CC1)C2` @ Ecoli rRNA inh RFP: -1.5
`Cc1ccccc1S(=O)(=O)NCC[C@@H]1CC[C@H](NC(=O)C2CCCC2)[C@@H](CO)O1` @ Ecoli rRNA inh RFP: 2.0

(continued)
SMILES	Ecoli rRNA inh	Ecoli rRNA inh OD600	Ecoli rRNA inh RFP	FGF22 binding	MLL AF4-AF9 inh
CCOC(=O)N1CCC(NC(=O)c2cc3c(-c4ccc(Cl)cc4)nn(C)c3s2)CC1	11	8	-0.7	i	11
C[C@H]1[C@H](c2ccccc2)Oc2cccc(N3CCCC3)c2S(=O)(=O)N1Cc1cccc(F)c1	12	15	2.3	i	-0.4
CCCNC(=O)N1C[C@H](C)[C@H](OC)CN(C)C(=O)c2cc(NS(=O)(=O)CC)ccc2OC[C@@H]1C	0	-3	-0.1	i	0.3
CCCC#Cc1ccc2c(c1)O[C@@H](CN(C)C(=O)CN(C)C)[C@@H](C)CN([C@H](C)CO)S2(=O)=O	0	3	-1.1	i	2.5
Cc1nc2c(nc1C)C(=O)c1ccccc1C2=O	-24	-68	-16	i	-3.3
C[C@@H]1CN([C@@H](C)CO)S(=O)(=O)c2ccc(C#CC3CC3)cc2O[C@H]1CN(C)C(=O)c1ccccn1	-35	-62	-11	i	-0.1
C[C@@H]1CN([C@H](C)CO)C(=O)c2cc(-c3cccc(C#N)c3)cnc2O[C@@H]1CN(C)Cc1ccncc1	2	10	5.0	i	-3.7
C[C@@H]1CN([C@H](C)CO)C(=O)c2cccc(NS(=O)(=O)c3ccccc3)c2O[C@H]1CN(C)Cc1ccc(Oc2ccccc2)cc1	2	-2	1.2	i	-0.3
CC(=O)N1[C@H](CO)[C@@H](c2ccccc2)[C@H]1CN(C(=O)NC(C)C)C1CCCC1	-1	5	0.7	i	-2.0&-0.9
O=C(COC(=O)Cc1ccc(Cl)cc1)NCc1ccc2c(c1)OCO2	-9	1	3.6	i	-1.5
COC(=O)C[C@@H]1C[C@H]2c3cc(NS(=O)(=O)c4cccc(OC)c4)ccc3O[C@H]2[C@@H](CO)O1	-1	3	-2.1	i	-0.6
COc1cc(OC)c2c(-c3ccccc3)cc(=O)oc2c1C(CCN1CCOCC1)c1ccc2c(c1)OCO2 (stereo not given)	-46	-54	10	i	5.3
CCN(CC)CCn1c2ccccc2c(=O)c2c(O)ccc(O)c21	5	-19	10	i	17
CC(=O)NC1CC2CCCC(C1)N2C(=O)Nc1c(C)cccc1C (stereo not given)	11	20	-2.0	i	-0.5
C[C@H](CO)N1C[C@H](C)[C@H](CN(C)Cc2cccnc2)Oc2cc(-c3ccccc3)ccc2S1(=O)=O	-13	-24	-1.7	i	5.5
CC(C)[C@H]1COCc2cn(nn2)CCCC(=O)N1	2	19	-2.9	i	-12
C[C@H]1CN([C@@H](C)CO)S(=O)(=O)c2ccc(C3=CCCC3)cc2O[C@H]1CN(C)Cc1cccc(C(=O)O)c1	-2	1	2.6	i	0.1
CN(C)C(=O)C[C@@H]1CC[C@H]2[C@@H](COC[C@H](O)CN2C(=O)C2CCCC2)O1	2	2	1.1	i	-3.1
COCCNC(=O)C[C@@H]1CC[C@@H]2[C@H](COC[C@H](O)CN2S(=O)(=O)c2ccccc2F)O1	3	23	-2.0	i	-1.8
O=c1[nH]cc(CCc2ccccc2)c(=O)[nH]1	17	18	0.1	i	0.2
O=C(COC(=O)C1CCN(S(=O)(=O)c2ccc(Cl)c(C(F)(F)F)c2)CC1)NCC1CCCO1 (stereo not given)	2	18	0.9	i	-3.6
CCNC(=O)Nc1ccc2c(c1)C(=O)N(C)[C@@H]1CC[C@@H](CC(=O)NCCOC)O[C@H]1CO2	3	-1	-5.0	i	-0.3
Cn1cnc(S(=O)(=O)N2CCCCN3[C@@H](CO)[C@H](c4ccc(-c5ccccc5F)cc4)[C@@H]3C2)c1	3	3	2.6	i	-4.2
C[C@@H]1CN([C@H](C)CO)S(=O)(=O)c2ccc(C3=CCCC3)cc2O[C@H]1CN(C)Cc1cccc(C(=O)O)c1	-6	-11	-5.5	i	-5.2
Nc1[nH]c(C(=O)c2ccccc2)c(-c2ccccc2Br)c1C(=O)NCc1ccc(-c2ccccc2)cc1	1	-7	33	i	-3.3
O=C(CC1Sc2ccccc2NC1=O)NNc1ccc(Cl)cc1Cl (stereo not given)	3	6	1.2	i	-2.1
C[C@H](O)C#Cc1ccc2c(c1)O[C@H](CN(C)C(=O)C1CC1)[C@H](C)CN([C@H](C)CO)S2(=O)=O	6	-4	-1.4	i	-6.5
O=C(Cc1ccccn1)N[C@H]1CC[C@H](CCNS(=O)(=O)c2cccc(F)c2)O[C@H]1CO	1	4	-0.2	i	-4.2
N#C[C@@H]1[C@H](c2ccc(C#Cc3ccccc3F)cc2)[C@@H](CO)N1C(=O)C1CC1	-53	-77	-13	i	-3.4
COc1cc(C(=O)NCCOc2ccc(Cl)cc2)ccc1OCc1c(C)noc1C	0	5	-5.7	i	-0.9
CCOC(=O)C1(C(=O)OCC)N=C(c2ccccc2)C=C1c1ccccc1	3	3	-1.7	i	-1.5
COc1ccc(N2CCN(c3cncc(C)n3)CC2)cc1	-4	-5	3.0	i	9.2
COC(=O)c1ccc2nc(-c3ccc(C)cc3)c(Cc3ccc(OC)cc3C)n2c1	-3	5	6.1	i	-7.7
COC(=O)c1ccc(NCc2cc(O)ccc2O)cc1O	-18	1	25	i	7.8
Cc1ccc(S(=O)(=O)N(C)C[C@H]2Oc3cc(-c4cccc(F)c4)ccc3S(=O)(=O)N([C@@H](C)CO)C[C@H]2C)cc1	4	10	-3.0	i	-4.4
Cc1ccc(Cc2c(C3CCCCC3)nc3c4ccccc4ccn23)cc1	26	8	39	i	-0.2
OC[C@@H]1Nc2ccc(C#Cc3ccc(F)cc3)cc2[C@@H]2[C@H]1CCN2Cc1ccc2c(c1)OCO2	-55	-74	-14	i	14
